Screens as filed in PubChem.
gsp antagonist – antagonists of gsp mutant (McCune-Albright syndrome). gsp-mutant cells, cAMP HTRF, 30 min; control for the full effect not named in the record. Potency, µM (highest dose often 76.9 µM), without a hit: at the highest dose activity change, negative = inhibition, actives largely listed as inhibitors. 0.4% of 340,000 active. AID 624288; active = falling curve of any shape with a large fitted effect; inconclusive = falling curve, mostly with a smaller effect; inactive = flat or rising curve; cell line not stated here;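 also: intracellular cAMP measured with PDE inhibitor Ro 20-1724 present during compound exposure; potency is read from the fitted curve at half-maximal effect; % is scaled to controls: 0 for no effect and ±100 for the full control effect; nearly all actives have a fitted effect of over 65% in size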
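HTRF cAMP read-out (cAMP-d2 plus anti-cAMP antibody-K in lysis buffer, 30 min RT). Before lysis, cells are exposed to compounds with […] for 30 min at 37C in DPBS containing Ca/Mg, BSA and Tween 20.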
CtBP-E1A blk – inhibitors of CtBP/E1A interaction | AlphaScreen GST-E1A/His-CtBP binding, 1536-well; hits give low values; control for the full effect not named in the record | activity change, % (no concentration beside the values) | 0.49% of 340,000 active | AID 651724; in the data active means activity change below about -65%; inconclusive means about -30% to -65%; inactive means above about -30%; also: % is scaled to controls: 0 for no effect and ±100 for the full control effect; compound concentration not given in the record
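Protein mix (5X: 125 nM each GST-E1A, His-CtBP) was incubated with pinned compound 2 h at 37 deg C in dark, in 50 mM Tris pH 8.0 buffer with 300 mM NaCl. Glutathione donor and nickel acceptor beads followed; AlphaScreen signal read after 1 h.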
gsp agonist – gsp mutant agonism; Potency, µM (series often up to 76.9 µM), for the others: at the top dose activation (cAMP increase), usual class: activators; gsp mutant cells, cAMP HTRF, 30 min; control for the full effect not named in the record; 0.13% of 340,000 active; active = well fitted activation curve with a large enough effect; inconclusive = small, poorly fitted or top-dose-only effect, or another doubt; inactive = no such curve, though single readings can be large or run the other way; cell line not stated here;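 also: phosphodiesterase inhibitor Ro 20-1724 added with compounds to block cAMP breakdown; potency is read from the fitted curve at half-maximal effect; nearly all actives have a fitted effect of over 60% in size; about a fifth of the inactives were tested at one dose only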
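Cells in DMEM/10% FBS with G418 were pretreated with compounds in DMSO plus […] (300 uM stock) for 30 min at 37C. cAMP was measured by HTRF (cAMP-d2 plus anti-cAMP antibody-K) after 30 min at room temperature.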
D2 ag – human D2 receptor agonism in beta-arrestin assay. P14416. DiscoveRx PathHunter D2 beta-arrestin, luminescence, 90 min; 100% = 57 uM dopamine signal. 0.084% of 360,000 active. activation, % (concentration not given with the values); in the data active = activation above about 40%; inconclusive = about 15% to 40%; inactive = below about 15%; also: compound concentration not given in the record; the text of the record calls up to 30% inactive
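DiscoveRx PathHunter D2 beta-arrestin cells (2,100/well) attached overnight, then compound-stimulated 90 min at 37 C in HBSS/10 mM HEPES/0.1% Tween-20 buffer; beta-galactosidase complementation read by luminescence after 1 h at ambient temperature. Dopamine 57 uM final (EC100) as control.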
D2 PAM – positive allosteric modulators of human D2 dopamine receptor; DiscoveRx D2 beta-arrestin cells, luminescence, 90 min; 100% = 57 uM dopamine signal; 0.23% of 360,000 active; potentiation, % (test concentration not listed); P14416; AID 624464; active = potentiation of 50% or more; inconclusive = 30% to 50%; inactive = 30% or less;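 also: compound concentration not given in the record; tested on top of an EC20 dose of dopamine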
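PathHunter beta-arrestin assay in DiscoveRx D2 cells. Compounds were added with an EC20 of dopamine (50 nM final) for 90 min at 37 deg C. Luminescence was read 1 h after detection reagent, with 57 uM dopamine as the EC100 control.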
Six1-Eya2 blk – blocks human Six1 binding to Eya2; AlphaScreen GST-Six1/His-Eya2 binding, biochemical; hits give low values; control for the full effect not named in the record; activity change, % (concentration not given with the values); AID 651725; 0.56% of 360,000 active; in the data active = activity change below about -65%; inconclusive = about -30% to -65%; inactive = above about -30%; also: % is scaled to controls: 0 for no effect and ±100 for the full control effect
Target sequence (O00167 whole entry, looked up): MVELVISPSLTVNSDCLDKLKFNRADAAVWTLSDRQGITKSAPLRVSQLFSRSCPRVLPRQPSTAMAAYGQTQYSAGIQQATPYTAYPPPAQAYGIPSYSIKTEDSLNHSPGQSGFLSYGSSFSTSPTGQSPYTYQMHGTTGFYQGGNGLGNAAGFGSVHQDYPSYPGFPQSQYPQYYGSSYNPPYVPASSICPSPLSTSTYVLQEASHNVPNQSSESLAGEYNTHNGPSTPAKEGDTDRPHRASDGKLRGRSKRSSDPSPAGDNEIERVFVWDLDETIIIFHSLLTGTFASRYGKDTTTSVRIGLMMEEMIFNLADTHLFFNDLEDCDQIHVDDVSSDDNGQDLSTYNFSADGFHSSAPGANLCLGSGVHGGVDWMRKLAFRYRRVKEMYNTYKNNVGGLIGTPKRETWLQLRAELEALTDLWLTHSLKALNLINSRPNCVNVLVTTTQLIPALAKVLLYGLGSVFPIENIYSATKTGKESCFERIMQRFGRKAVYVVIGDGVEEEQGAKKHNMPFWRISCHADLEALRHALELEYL
Target sequence (Q15475 whole entry, looked up): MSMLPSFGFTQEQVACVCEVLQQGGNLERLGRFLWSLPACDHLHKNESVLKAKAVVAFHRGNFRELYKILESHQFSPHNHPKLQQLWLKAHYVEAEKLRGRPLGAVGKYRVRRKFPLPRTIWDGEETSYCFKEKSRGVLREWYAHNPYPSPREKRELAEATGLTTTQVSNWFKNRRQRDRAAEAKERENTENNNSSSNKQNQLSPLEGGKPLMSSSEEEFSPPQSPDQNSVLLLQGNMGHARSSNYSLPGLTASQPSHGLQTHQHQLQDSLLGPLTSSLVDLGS
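Homogeneous AlphaScreen proximity assay pairing GST-Six1 with His-tagged Eya2 (added as 5X mix: 250 nM and 500 nM) in 50 mM Tris pH 8.0, 300 mM NaCl, 1 mM TCEP. Glutathione donor and nickel acceptor beads; 1 h, 37 °C, dark.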
The depositor's hits bear a star; ? = inconclusive; / = not tested or not shown; [ ] = remark or other dose.

SMILES	gsp antagonist	CtBP-E1A blk	gsp agonist	D2 ag	D2 PAM	Six1-Eya2 blk
CC1=C(C(=O)N2CCOCC2)CC(CC(=O)NC(c2ccccc2)c2ccccc2)C(=O)N1Cc1ccc(C(C)(C)C)cc1 (configuration not stated)	/	-13	-64%[inhibitor]	-2.1	2	-11
O=C(Nc1sc2c(c1C(=O)NC1CCCCC1)CCC2)c1ccco1	-11%	8	?	-1.8	-2	1
CCOc1ccc(NC(=O)Nc2ccc3c(c2)CCC3)cc1	8%	2	2%	-1.9	-1	14
N#CCC(=O)Nc1ccc(C(=O)Nc2cccnc2)cc1	0%	-17	-38%[inhibitor]	6.7	-2	-1
CSc1nc(N)nc2c1ncn2CC(=O)NCCCc1ccccc1	-2%	-13	/	-1.6	2	0
CCN(CCNC(=O)CN(C)S(=O)(=O)c1cccc2nsnc12)c1ccccc1	-18%	-6	-20%	2.3	1	-7
COc1ccc(NCc2nnc(SCC(=O)NNC(=O)c3ccc(C)cc3)n2C)cc1	2%	11	0%[15.4 µM]	-1.8	-2	-5
CCOc1ccc2cc(C#N)c(SCC(=O)N3CCC(C)CC3)nc2c1	-6%	-2	5%	-2.3	-5	-1
CN(C)S(=O)(=O)c1ccc2c(c1)C(=NNC(N)=O)c1cc(S(=O)(=O)N(C)C)ccc1-2	-22%	1	25%	1.0	-9	2
CCOC(=O)Cc1csc(NC(=O)c2cc(OC)cc(OC)c2)n1	-5%	5	-17%	-5.1	-9	-3
FC(F)(F)c1cc(-c2ccccc2)nc(-n2cc(Cl)cn2)n1	-14%	/	2%	-3.5	-5	20
COc1ccc(-c2nc(O)c3cnccn23)cc1	?	-3	-21%	7.8	10	-3
CCCC(=O)Nn1cnc2c(c1=O)C1(CCCC1)Cc1ccccc1-2	-9%	8	-46%	-0.4	-17	5
c1ccc(Nc2nc(-c3ccncc3)cs2)nc1	-3%	-6	0%	1.7	22	0
CCNC(=O)/C(=C/c1ccco1)NC(=O)/C=C/c1ccccc1	7%	-11	6%	0.2	-3	3

2 compounds from above with just CtBP-E1A blk, D2 PAM and D2 ag.
mol	CtBP-E1A blk	D2 PAM	D2 ag
FC(F)(F)c1cc(-c2ccccc2)nc(-n2cc(Cl)cn2)n1	/	-5	-3.5
COc1ccc(-c2nc(O)c3cnccn23)cc1	-3	10	7.8

Remaining list, next part:
SMILES	gsp antagonist	CtBP-E1A blk	gsp agonist	D2 ag	D2 PAM	Six1-Eya2 blk
COc1cc(C(=O)OCC(C)=O)cc(NC(=O)c2ccco2)c1OC	-5%	0	-3%	-6.7	-1	4
Cc1ccc(C)c(NS(=O)(=O)c2cc(Br)cnc2N)c1	-7%	1	-11%	-1.5	-5	4
COc1ccc(NC(=O)NCCCN2CCCC2=O)c(OC)c1	1%	-12	-15%	-4.0	-15	-11
O=C(NCCc1nnc2ccc(NCc3ccccc3Cl)nn12)c1ccccc1	7%	3	-11%	-5.0	11	10
CC(C)(C)c1ccc(C(=O)N2CCC2(C)C(=O)Nc2ccc3[nH]ncc3c2)cc1 (configuration not stated)	/	3	/	0.9	-12	-2
NC(=O)NOCc1c(Cl)cccc1Cl	9%	-20	0%[15.4 µM]	2.2	-1	-1
CCN(CC)CCNc1ccc(CO)c2oc3cc(Cl)ccc3c(=O)c12	/	-12	-73%[inhibitor]	-4.2	-23	?
NS(=O)(=O)c1ccc(N2CCN(S(=O)(=O)Cc3ccccc3)CC2)nc1	12%	7	23%	-0.9	-4	6
COc1ccccc1N1CCN(C2CCCN(C(=O)CN3CCCC3=O)C2)CC1 (configuration not stated)	10%	5	-27%	-5.5	-33	-1
CC(=O)c1c(C)[nH]c(C(=O)OCc2ccccc2)c1C	-22%	-8	-15%[15.4 µM]	14	-4	-10
CCOC(=O)C(CC)Sc1nc2c(c(=O)[nH]c(=O)n2C)n1C/C=C(/C)Cl (configuration not stated)	-14%	-4	-27%	-1.6	-4	-6
Brc1ccc(OCCOCCOc2cccc3cccnc23)cc1	?	-1	-1%	1.7	-16	-5
O=C(Nc1ccc(Cl)c(Cl)c1)Nc1nccs1	16%	/	-28%	-1.8	-19	-1
CCC(=O)c1ccc(OCC(=O)NCC2(N3CCCCC3)CCCCC2)cc1	6%	/	4%	-1.8	?	3
CCCCCCC1CC(CSc2ncn[nH]2)OC1=O (configuration not stated)	-7%[15.4 µM]	-5	-13%	-2.0	-15	0
CCOC(=O)c1ccc(NC(=O)CSc2nnc(CNC(=O)c3c(F)cccc3Cl)o2)cc1	-7%	-3	-3%	0.4	8	-1
COc1ccc(C(=O)NCC(=O)N2CCc3ccccc3C2)cc1	/	6	11%[15.4 µM]	-3.3	3	4
O=C(O)C1C2C=CC(C2)C1C(=O)Nc1ccccc1Br (configuration not stated)	10%	-1	7%[15.4 µM]	-3.8	4	-3
Cc1nc2c3cc(Cl)ccc3n(CCN3CCCCC3)c2s1	1%	-16	27%	-2.9	-21	-14
COc1ccc(C(=O)Nc2ccccc2C(=O)NCc2ccco2)cc1OC	-5%	-3	-21%	-1.3	1	-10
COc1ccccc1C(=O)NCCC(=O)NCc1ccccn1	15%	5	-14%	-6.2	-8	-6
CCSc1ccccc1C(=O)Nc1cccc(OC)c1	3%	7	?	-3.0	-16	1
CCN(CC)S(=O)(=O)c1ccc2[nH]c(=O)cc(C(=O)Nc3ccc(C)c(S(=O)(=O)N(CC)CC)c3)c2c1	3%	-5	1%[15.4 µM]	-5.0	2	-14
COCCN(CC(=O)Nc1ccccc1C(F)(F)F)C(=O)/C=C/c1cc(Cl)c2c(c1)OCO2	1%	/	3%	-0.4	6	0
Cc1noc(C)c1COc1cccc(C(=O)NC(C)(C)C)c1	-3%	14	-1%	1.3	-3	1
Cc1cc(C)c(C)c(S(=O)(=O)Nc2ccccc2C(=O)NN2CCOCC2)c1C	-14%	0	?	0.7	-6	10
CC(NC(=O)c1ccccc1)C(=O)N/N=C/c1cccc([N+](=O)[O-])c1 (configuration not stated)	6%	0	4%	0.5	-5	-10
CCCCCCCCCCSc1n[nH]c(N)n1	5%	4	0%	-1.3	-1	-2
Cc1csc(NC(=O)c2ccccc2C(=O)O)n1	7%	-7	-69%[inhibitor]	0.6	-6	1
Clc1ccc(-c2nc(N3CCOCC3)nc3ccccc23)cc1	-28%	43	5%[15.4 µM]	-4.3	-8	3
O=[N+]([O-])c1ccc(S(=O)(=O)CC(CN2CCOCC2)N2CCOCC2)cc1 (configuration not stated)	9%	0	-23%	5.0	11	4
Cc1c(-c2csc(N)n2)c2ccccc2n1C	5%	-24	-1%	-1.1	-10	-11
Cn1nc(C(=O)OCC(=O)Nc2cc(Cl)ccc2C#N)c2ccccc2c1=O	-1%	5	-10%	-0.1	2	1
CCCCc1ccc(/C=C2/C(=O)ON=C2c2ccccc2)s1	1%	-8	-2%	2.0	-8	2
CCN(CC)CCOC(=O)c1cccc(Br)c1	2%	-4	-3%	-3.2	-22	-15
Cc1cccn2c(CNCCCOc3cccnc3)c(C(=O)N3CCOCC3)nc12	12%	5	-7%[15.4 µM]	-2.1	-5	1
CCn1c(C(=O)O)c(CC(=O)N(C)c2ccc(OC)cc2OC)c2ccccc21	-3%	/	7%	-7.2	-4	2
CC(C)(C)NC(=O)NC(=O)COC(=O)C1=COCCO1	12%	-1	0%	-0.2	0	5
COc1ccccc1NC(=O)COc1cc(C)nc(C(C)C)n1	3%	4	-12%	-0.9	-5	4
C=C(C)COc1ccc(-c2n[nH]c(C)c2Oc2ccccc2OC)c(O)c1	?	-6	19%	-0.1	8	-1
CC(=O)c1ccccc1NC(=O)CCN1C(=O)C2CCCCC2C1=O (configuration not stated)	7%	4	6%[15.4 µM]	-3.6	-20	-7
CNC(=S)N/N=C/c1cc(Br)c(OCc2ccncc2)c(OC)c1	-2%	/	-8%	4.1	5	-7
c1ccc(C(Cc2nc(-c3ccncc3)no2)c2ccccc2)cc1	?	7	6%	4.9	7	14
O=C(O)CC1(CC(=O)Nc2ccc3ccccc3c2)CCCCC1	?	-1	-21%	-8.7	17	-1
CCOc1cc(N2CCOCC2)c(OCC)cc1NC(=O)C1CC(=O)N(c2ccccc2OCC)C1 (configuration not stated)	-19%	-12	-7%	7.3	2	-3
COC(=O)c1cccc(NC(=O)CCc2c(C)noc2C)c1	-5%	/	3%	1.0	-2	0
CC(C)(CNC(=O)c1cccs1)N1CCOCC1	7%	/	?	-1.3	-3	5
COc1ccc(CCC(=O)OCC(=O)Nc2ccc3[nH]c(=O)[nH]c3c2)cc1	-1%	2	10%[15.4 µM]	-0.3	1	-3
COc1ccccc1N(/N=C1\Sc2ccccc2C1=O)C(C)=O	-16%	/	1%	1.2	-19	-1
O=C(NCc1ccccc1)NC1CCCCC1	0%	4	1%	0.3	0	7
COc1cccc(-n2c(SCC(=O)Nc3ccc4c(c3)CCC4)nc3ccccc3c2=O)c1	8%	4	6%	2.1	2	5
CCCCC(=O)N1C/C=C\C(c2ccc(OC)cc2)N(Cc2ccc(F)cc2)C(=O)[C@H]1Cc1ccccc1 (some centres not stated)	-4%	-15	/	0.1	-42	-1
COCCn1c(=NC(=O)c2ccco2)sc2cc(C(=O)OC)ccc21	19%	0	6%	-3.1	-34	23
O=S1(=O)N=C(N(CCO)/N=C/C=C/c2ccccc2)c2ccccc21	-27%	-89*	-27%	0.7	-6	-85*
Clc1ccc(-c2noc(/C=C/c3ccccc3)n2)cc1	8%	/	-20%	-4.1	-13	2
CCN(C(=O)c1cnc(OC)cc1C(F)(F)F)c1ccc(Cl)cc1Cl	-27%	12	-21%[15.4 µM]	-0.7	-10	-16
C=CCN1C(=O)C2C3C=CC(C2C1=O)C1C2C(=O)N(CC=C)C(=O)C2C31 (configuration not stated)	6%	0	-6%[15.4 µM]	-6.0	3	0
COC(=O)n1c(=O)oc2cc(S(=O)(=O)N3CCCCC3)ccc21	-13%	6	-44%[inhibitor]	-1.0	0	-1
Cc1cc(C)c2oc(C(=O)Nc3ccc(S(=O)(=O)Nc4nccc(C)n4)cc3)cc(=O)c2c1	1%	/	?	5.3	4	0
OC(COC(c1ccccc1)c1ccccc1)CN1CCN(c2ccccn2)CC1 (configuration not stated)	-7%	?	18%	13	-15	-3

The list goes on:
SMILES	gsp antagonist	CtBP-E1A blk	gsp agonist	D2 ag	D2 PAM	Six1-Eya2 blk
Cc1noc(C)c1CSCC(=O)Oc1ccc(N(C)S(=O)(=O)c2ccc(Cl)cc2)cc1	-5%	2	-5%[15.4 µM]	1.4	-1	-4
COC(=O)c1cc(S(=O)(=O)N2CCN(c3cccc(C)c3C)CC2)c[nH]1	6%	-3	-4%	-5.1	-8	-5
CCOC(=O)CSCC(=O)N1CCC(Cc2ccccc2)CC1	-13%	2	28%	2.6	-3	4
CC1CCN(C(=S)NC(=O)c2ccc(C(C)(C)C)cc2)CC1	-4%	-8	15%	-4.9	-11	-9
